From PubChem BioAssay
Calb biofilm kill: mixtures killing C. albicans biofilm | 0.02% of 120,000 active | AID 1242 | inhibition, % at 7.6 µM | C. albicans biofilm persisters + clotrimazole, fluorescence viability; primary screen in compound mixtures of four per well;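 active = inhibition above 30.3% in the primary screen of four-compound pools, then above 30% when the compound was retested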;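 note: compounds exposed to preformed 24 h biofilms for 48 h; the number belongs to the whole pool; some results filed as inactive read as strong as hits; inactives centre near 12; 0% = biofilm with clotrimazole alone and 100% = kill control; retested singly at about 60 µM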
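Assay system: C. albicans biofilms / Medium: RPMI/MOPS medium, pH 7.0 / Schedule: biofilm formation 24 h, compound exposure 48 h, 37 °C / Measured by: Alamar Blue fluorescence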
Numbers without * were called inactive. The list is partial; count on the stated rates, not on these rows.

SMILES | Calb biofilm kill
CN1C(=O)C(c2nnc(Nc3cccc4ccccc34)s2)C2CC1(C)Oc1ccccc12 (stereo not drawn) | 16
C/C(=N\NC(=O)c1cc(C)oc1C)c1ccc(N2CCOCC2)cc1 | 2
O=C(COC(=O)C1CCCCC1)NCCc1ccccc1 | 7
Cc1ccc2oc(=O)n(CCOc3ccccc3)c2c1 | 9
CSc1nnc(-c2ccncc2)n1/N=C/c1cn(-c2ccccc2)nc1-c1ccc(Cl)cc1 | 1
COc1ccc(C2/C=C\CN(S(=O)(=O)c3ccc4ccccc4c3)CC(=O)N2Cc2ccc(F)cc2)cc1 (stereo not drawn) | 5
CCCC(O)(CCC)C(=O)NNc1ccc(C)cc1 | 5
CN(c1ccc(C(=O)Nc2ccc(CC#N)cc2)cc1)S(C)(=O)=O | 7
Cc1cc(=O)[nH]c(NCc2ccccc2)n1 | 22
COc1cc2[nH]c(-c3ccc(C)cc3)cc(=O)c2cc1OC | 10
CN(C)S(=O)(=O)Oc1ccc(C(=O)Nc2cccc(Cl)c2)cc1 | 10
COc1ccc(C(=O)NC(=S)Nc2cc3oc4ccccc4c3cc2OC)cc1 | 7
CC1(C)CC(=O)C(C(C2=C(O)CC(C)(C)CC2=O)c2ccc([N+](=O)[O-])cc2)C(=O)C1 (stereo not drawn) | 12
O=C(NC1CCCC1)C(=O)N(c1ccccc1F)C(C(=O)NCC1CCCO1)c1cccs1 (stereo not drawn) | 8
CCC(CC)NC(=O)COC(=O)CCC(=O)c1cccs1 | 10
Cc1cc(/C=C2/NC(=O)N(Cc3ccccc3F)C2=O)c(C)n1C(C)C | 13
C/C(=N\NC(=O)C1CC1)c1ccc(NC(=O)c2ccc(Br)o2)cc1 | 7
OCc1nc2ccc(Cl)cc2[nH]1 | 14
COc1ccc(C(=O)/C=C/c2cn(CC(O)CN3CCOCC3)c3ccccc23)cc1 (stereo not drawn) | 10
COc1cccc(CN(C)C(=O)c2cccc(OC3CCN(C4CCCC4)CC3)c2)c1 | 14
COc1ccc(OCC(=O)N/N=C(\C)c2ccc(OC)cc2)cc1 | -3
O=C(Nc1nnc(Cc2c[nH]c3ccccc23)s1)c1ccc(Cl)cc1Cl | 7
COc1ccc(Oc2ncccc2NC(=O)c2cccc(C)c2C)cc1 | 17
COc1ccc(CCNc2nc(-c3cccc(NC(C)=O)c3)cs2)cc1OC | 18
Cc1ccc(C(=O)CSc2nnc(CNc3ccc(F)cc3)o2)cc1 | 8
CC(C#N)Sc1nnc(Nc2ccccc2)s1 (stereo not drawn) | 8
CCOC(=O)C1CCCN(c2cc(=O)n(Cc3ccc(F)cc3)c(=O)[nH]2)C1 (stereo not drawn) | 7
CNc1nc(N)c([N+](=O)[O-])c(Nc2cccc(Cl)c2)n1 | 22
CCOC(=O)N=S(=O)(Oc1ccc([N+](=O)[O-])cc1)c1ccc(Cl)cc1 (stereo not drawn) | 16
COC(=O)[C@@H]1C[C@@]2(O)[C@H](O)[C@H](O)[C@H](O)C[C@H]2N1Cc1ccccc1OS(=O)(=O)c1ccc(C)cc1 | 18

Looked up by structure from the list above (four):
SMILES | Calb biofilm kill
COc1ccc(OCC(=O)N/N=C(\C)c2ccc(OC)cc2)cc1 | -3
COc1ccc(C(=O)/C=C/c2cn(CC(O)CN3CCOCC3)c3ccccc23)cc1 (stereo not drawn) | 10
O=C(Nc1nnc(Cc2c[nH]c3ccccc23)s1)c1ccc(Cl)cc1Cl | 7
CC(C#N)Sc1nnc(Nc2ccccc2)s1 (stereo not drawn) | 8

(listing goes on)
SMILES | Calb biofilm kill
O=C(c1cccc(S(=O)(=O)N2CCOCC2)c1)N(Cc1ccc(F)cc1)Cc1ccco1 | 15
CCOP(=O)(CC(C(C)=O)C(O)c1ccccc1)OCC (stereo not drawn) | 1
COC(=O)c1ccc(CSc2nnc(NC(C)C)s2)o1 | 11
COc1cccc(NC(=O)Nc2ccccc2C(N)=O)c1 | 11
Cc1ccccc1C(=O)NC1CCN(Cc2ccccc2)CC1 | 15
COc1ccc(-c2[nH]ncc2CN2CCN(C(=O)c3ccco3)CC2)cc1F | 0
N#Cc1cc([N+](=O)[O-])ccc1NC(=O)COC(=O)CCC1CCCCC1 | -4
NC(=O)COC(=O)c1cc(-c2ccco2)nc2ccccc12 | 15
COc1ccccc1NC(=O)CCc1c(C)nc2c(-c3ccc(F)cc3)c(C)nn2c1C | 16
O=C1N(c2cccc(Cl)c2)C(c2ccc(Cl)cc2)N2CCCN12 (stereo not drawn) | 9
CCN(C(=O)COC(=O)/C=C/c1c(C)nn(-c2ccccc2)c1C)C1CCS(=O)(=O)C1 (stereo not drawn) | 2
Cc1cc(C)c2c(=O)c(/C=C3\NC(=S)NC3=O)coc2c1 | 18
S=c1[nH]nc(-c2ccco2)n1/N=C/C=C/c1ccco1 | 21
Cc1ccc(S(=O)(=O)N2CCCCC2)cc1NC(=O)CNCc1ccco1 | 13
CCC(=O)Nc1ccc(C(=O)N/N=C/c2cc(Br)c(OC)cc2OC)cc1 | 6
COc1ccc(C(=O)OCC(=O)c2c(N)n(C)c(=O)n(C)c2=O)cc1OC | 0
CCn1c(SCC(=O)N2CCc3ccccc3C2)nc2sc(C)c(C)c2c1=O | 9
COc1ccc(CCNC(=O)CSC(=O)c2ccccc2)cc1OC | 17
CC(=O)c1c(C)[nH]c(C(=O)NCc2cccc(Cl)c2)c1C | 16
COc1ccccc1-c1cn[nH]c1-c1ccc(OCc2ccc(F)cc2)cc1O | 23
CN1C2CCC1CC(NC(=O)CSc1ccc(Cl)cc1)C2 (stereo not drawn) | 11
O=C(/C=C/c1ccccc1Cl)NC1CCS(=O)(=O)C1 (stereo not drawn) | 11
CCOC(=O)C(NC(C)=O)C(O)c1ccc([N+](=O)[O-])cc1 (stereo not drawn) | 14
CC(Oc1ccc(Br)cc1)C(=O)N1CCC(C(N)=O)CC1 (stereo not drawn) | 11
N#CNC(=Nc1ccc(Cl)cc1)Oc1ccccc1 | -8
CN1C(=O)/C(=C/c2ccc(O)c([N+](=O)[O-])c2)NC1=S | 49
O=C(Oc1ccc(N2C(=O)CCC2=O)cc1)c1ccccc1Cl | 8
S=C(NCc1ccccc1)N1CCN(C2CCCCC2)CC1 | 18
O=C(Nc1cc(Cl)ccc1Cl)C1CC(=O)N(c2ccccc2)C1 (stereo not drawn) | 8
COCCCNC(=O)/C(=C\c1cccn1C)NC(=O)c1cccs1 | 10

Rewritten in markdown: part of the list above.
| mol | Calb biofilm kill |
| --- | --- |
| S=C(NCc1ccccc1)N1CCN(C2CCCCC2)CC1 | 18 |
| COc1ccc(C(=O)OCC(=O)c2c(N)n(C)c(=O)n(C)c2=O)cc1OC | 0 |
| CC(=O)c1c(C)[nH]c(C(=O)NCc2cccc(Cl)c2)c1C | 16 |
| CN1C2CCC1CC(NC(=O)CSc1ccc(Cl)cc1)C2 (stereo not drawn) | 11 |
| O=C(/C=C/c1ccccc1Cl)NC1CCS(=O)(=O)C1 (stereo not drawn) | 11 |
| CCn1c(SCC(=O)N2CCc3ccccc3C2)nc2sc(C)c(C)c2c1=O | 9 |
| CN1C(=O)/C(=C/c2ccc(O)c([N+](=O)[O-])c2)NC1=S | 49 |

The list continues:
SMILES | Calb biofilm kill
C[C@@H](CN1C2=NC[C@H](Cc3ccccc3)N2C[C@H]1Cc1ccc(O)cc1)NC(=O)CCC1CCCCC1 | 18
Cc1ccc(N/C=C2\CCCCC2=O)nc1 | 6
C/C(=N\NC(=S)NCCc1ccccc1)c1cccc(Br)c1 | 12
O=C(CO/N=C/c1ccccc1O)N1CCc2ccccc21 | 4
c1ccc(C2=NC(c3ccccc3)N=C(c3ccccc3)N2)cc1 | 5
CCOC(=O)c1c(/N=C/N(C)C)sc2c1CCC2 | 24
CCOC(=O)c1nccnc1C(=O)Nc1ccc(C(F)(F)F)cc1 | 0
CC(=O)c1cc2c(cc1NS(=O)(=O)c1ccc(F)cc1)OCO2 | 10
S=c1[nH]nc(-c2ccccc2)n1/N=C/c1ccc(-c2ccccc2Cl)o1 | 10
CN(C)/C=C1\C(=O)ON=C1c1ccccc1 | 15
CCc1ccc(NC(=O)C2CCCN(S(=O)(=O)c3c(C)[nH]c(=O)[nH]c3=O)C2)cc1 (stereo not drawn) | 6
CC(C)C(NC(=O)c1ccccc1F)C(=O)Nc1nccs1 (stereo not drawn) | 18
COc1ccccc1-c1nnc2sc(-c3ccc(N(C)C)cc3)nn12 | 12
Cc1ccc(NC(=O)CSc2nn(-c3ccccc3)c(=S)s2)cc1S(=O)(=O)N(C)C | 8
NC(=O)c1nn(-c2ccc(Oc3ccccc3)cc2)c(=O)cc1O | -3
C#CCNC(=O)C1=C[C@H](C2CC2)C[C@H](OCCCCO)O1 | 25
Cc1ccc(C(=O)COc2ccccc2-c2ccccc2)cc1C | 15
Nc1nc(Cl)nc2c1ncn2[C@H]1C[C@H](O)[C@@H](CO)O1 | 16
CCc1nccn1S(=O)(=O)c1cc(OC)c(Cl)cc1OC | 16
CCCNc1sc(S(=O)(=O)CCC)nc1S(=O)(=O)c1ccc(C)cc1 | 16
COC(=O)NC(NC(=S)Nc1ccc([N+](=O)[O-])cc1)C(Cl)(Cl)Cl (stereo not drawn) | 9
CC(Nc1ccc(F)cc1F)C(=O)NC(=O)NC1CCCCC1 (stereo not drawn) | -2
O=C(O)CC12CC3CC(C1)CC(n1ncc(NCc4ccccc4Cl)c(Cl)c1=O)(C3)C2 | 21
COc1ccc(C2=NOC(C(=O)Nc3cccnc3)C2)cc1OC (stereo not drawn) | 11
O=C(CN1C(=O)c2ccccc2S1(=O)=O)NC(Nc1ccccc1F)C(Cl)(Cl)Cl (stereo not drawn) | 15
O=C(N/N=C/C1CC2C=CC1C2)c1ccccc1O (stereo not drawn) | 3
Cc1cc(-n2cnnn2)ccc1C(C)C | 10
CCOc1ccc(NC(=O)N(CCN(C)C)C(C)c2cccnc2)cc1 (stereo not drawn) | 8
O=C(O)CNC(=O)/C=C/c1ccc(Cl)cc1Cl | 28
O=C1NCCCC1C(=O)N1CCN(C(=O)c2ccco2)CC1 (stereo not drawn) | 8
COc1ccc2[nH]c(CN3CCN(CC(C)C)C(CCO)C3)c(C)c2c1 (stereo not drawn) | 10
CC(C)CC(=O)/C=C/n1c(=S)oc2ccccc21 | -11
C/C(=N/NC(=O)CCc1c(C)n[nH]c1C)c1cccc([N+](=O)[O-])c1 | 7
C/C(=N\NC(=S)Nc1ccc(C)c(C)c1)c1ccc(N2CCOCC2)cc1 | 15
COc1ccc(C(C)=O)cc1CN1C(=O)NC2(CCCC2)C1=O | 10
O=C(C[n+]1ccccc1)N/N=C/c1cccs1 | 15
CC(=O)c1nc(-c2ccccc2)sc1C | 8
CCOC(=O)N1CCC(N2C(=O)c3ccccc3C2Nc2cc(C)cc(C)c2)CC1 (stereo not drawn) | 29
CC(NC(=O)NC1CCCCC1)c1ccccc1 (stereo not drawn) | 3
COc1ccc(Br)c(C(=O)Nc2cccc(Cl)c2Cl)c1 | 1
COc1ccccc1CN(C)CC(=O)NC1CCCc2ccccc21 (stereo not drawn) | 11
Cc1cccc2cc(CN(CCN(C)C)C(=S)Nc3ccccc3)c(=O)[nH]c12 | 15
CCOC(=O)c1[nH]c2ccc(OC)cc2c1NC(=S)N1CCN(c2cccc(C)c2C)CC1 | 6
O=C(Nc1ccccc1-c1ccccc1)C1CCC1 | 1
O=C(NCCSCc1c(F)cccc1Cl)c1ccc(CN2CCOCC2)cc1 | 14
O=C(CSc1nc2ccccc2n1S(=O)(=O)c1cccc([N+](=O)[O-])c1)NCc1cccs1 | 25
CCn1nc(C)c(/C=N/NC(=O)c2nc3nc(C)cc(C)n3n2)c1C | 15
Cc1cc(C(=O)CSc2nn3c(=O)c(C(C)(C)C)nnc3s2)c(C)n1C | 13
C/C(=N\O)C(C)(C)Nc1ccc(Br)cc1 | 11
O=C(N[C@@H](Cc1ccc(O)cc1)C(=O)O)c1cccnc1 | 22
Cc1ccc(N2C(=O)CC(SCC(=O)Nc3ccc(S(N)(=O)=O)cc3)C2=O)cc1 (stereo not drawn) | 7
Cc1cccc(NC(=O)NC2CC(=O)N(c3ccc4c(c3)OCCO4)C2)n1 (stereo not drawn) | 8
COC(CNC(=O)CNC(=S)N(Cc1ccccc1)Cc1cccnc1)OC | 15
O=C1NC(=S)S/C1=C\c1ccc(SCc2ccco2)o1 | 18
CCOc1ccc(-n2ccnc2)nn1 | 20
Cc1ccc(SCC(=O)Nc2ccc(-c3nc4ccccc4[nH]3)cc2)cc1 | 13
CC(=O)Nc1ccc(C(=O)CSc2nc3ccc(C)cc3[nH]2)cc1 | 10
CCOC(=O)c1cc(CC)sc1NC(=O)CSc1nc2ccccc2c(=O)n1Cc1ccco1 | 17
O=[N+]([O-])c1ccc(NC2CCN(Cc3ccccc3)CC2)c([N+](=O)[O-])c1 | 6
CCOC(=O)c1cnc2c(C)cc(C)cc2c1Nc1ccc(S(=O)(=O)Nc2ncccn2)cc1 | 11

Some of the entries so far, field by field.
O=C(CSc1nc2ccccc2n1S(=O)(=O)c1cccc([N+](=O)[O-])c1)NCc1cccs1
  Calb biofilm kill: 25
CCn1nc(C)c(/C=N/NC(=O)c2nc3nc(C)cc(C)n3n2)c1C
  Calb biofilm kill: 15
Cc1cc(C(=O)CSc2nn3c(=O)c(C(C)(C)C)nnc3s2)c(C)n1C
  Calb biofilm kill: 13
C/C(=N\O)C(C)(C)Nc1ccc(Br)cc1
  Calb biofilm kill: 11

Other records.
SMILES | Calb biofilm kill
CC(C)CN1C(=S)SC(C)(C)C1n1oc(=O)n(-c2ccccc2)c1=O (stereo not drawn) | 11
CNC(=S)NNC(=O)c1ccc(N(C)C)cc1 | 19
C=CCN(CC=C)CCOc1ccc(OC(C)C)cc1 | 11
CNS(=O)(=O)c1ccc(C)c(S(=O)(=O)NC)c1 | 20
Cc1ccc(-c2cc(C(=O)N/N=C/c3cccnc3)n[nH]2)o1 | 6
CC1CCCCC1NC(=O)CSc1nnc(CNC(=O)c2ccccc2)n1C (stereo not drawn) | 12
CCCc1ccc(OCC(=O)NNC(=O)c2cccnc2)cc1 | 20
CC(=C/c1ccccc1)/C=N/NC(=O)c1cccs1 | 31
